# GIV Gai3 FP: GIV-Galpha-i interaction inhibition; P08753; Galpha-i3/FITC-GIV peptide fluorescence polarization, 90 min; hits give low values; scaled: aluminum fluoride 0%, vehicle 100%; percent of control (FP), % (no concentration beside the values); 210,000 tested, 0.42% active; AID 1224905;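 active = replicate mean at 85% of control or lower, very high polarization wells dropped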;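 also: wells of about 15 µL received 100 nL stock; the first replicate is given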
# Target sequence (P08753 whole entry, looked up): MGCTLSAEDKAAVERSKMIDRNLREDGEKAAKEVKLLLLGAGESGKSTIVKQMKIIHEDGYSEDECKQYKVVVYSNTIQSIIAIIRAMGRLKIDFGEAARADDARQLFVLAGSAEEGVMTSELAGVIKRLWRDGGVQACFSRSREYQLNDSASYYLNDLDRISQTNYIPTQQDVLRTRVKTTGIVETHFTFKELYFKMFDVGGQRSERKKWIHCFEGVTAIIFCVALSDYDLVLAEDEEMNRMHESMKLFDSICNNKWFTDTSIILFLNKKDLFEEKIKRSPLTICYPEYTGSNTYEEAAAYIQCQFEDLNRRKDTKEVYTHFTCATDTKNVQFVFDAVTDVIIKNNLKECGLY
# Sa growth inh: blocks Staphylococcus aureus growth. relative growth, % (concentration not given with the values). 170,000 tested, 0.53% active. S. aureus RN4220 growth, OD600, 20 h, 42 °C; hits give low values;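 active = growth at 42 °C up to 50% and 20 or more points under that at 30 °C, or under 10% at both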;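 also: 300 nL library stock went into each well; scaled to the means of positive and negative controls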
# HCMV NEC inh: inhibitors of HCMV UL50-UL53 nuclear egress complex interaction; HTRF UL50-UL53 interaction, normalized percent inhibition; inhibition, % (concentration not given with the values); 190,000 tested, 0.15% active;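 active = both replicates at 50% or more, plus weaker picks with an unusually low signal ratio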;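 also: stock transfer was 100 nL into about 20 µL; 0% = negative control wells and 100% = wells with untagged competitor protein; inactives centre near -12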
# Sa growth inh second temp: recorded beside Sa growth inh, whose call it bears; relative growth, %; measured here: growth at 30 °C;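 optical density after 20 h as mean of two plates; 100% = untreated growth and lower means inhibition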
# * marks the source's active call; other numbers are inactive results; . = not tested or not shown; & = joins results of further samples.
# Values run as follows: GIV Gai3 FP, Sa growth inh, Sa growth inh second temp, HCMV NEC inh
CCn1cc(C(=O)NC2CCCCCC2)c(=O)c2cc(F)c(N3CCN(C(C)=O)CC3)cc21
→ ., 100.7, 92.9, -8.4
CN(Cc1ccccc1)C(=O)Cn1c(=O)c2cccn2c2ccc(F)cc21
→ 99.4, 113.2, 92.2, -6.7
CCc1ccccc1NC(=O)Cn1nc(C(F)(F)F)c2c1CCC2
→ 109.0, 93.3, 93.7, -22.1
Cn1c(=O)c(N2CCCC(C(=O)NCCCN3CCN(c4ccccc4)CC3)C2)nc2ccccc21 (stereo not given)
→ 108.9, ., ., -1.7
CN(C)C(=S)c1ccc2ccccc2n1
→ 100.6, 79.5, 99.1, -17.1
COc1ccc(-c2nc(CNS(=O)(=O)N(C)C)cs2)cc1
→ 103.0&105.2, 110.6, 84.9, -64.3
Cc1ccccc1-n1c(C)c(C)c2c1ncn1nc(-c3ccc(F)cc3)nc21
→ 98.6, ., ., -17.2
O=C(O)CC1=C(c2cccs2)CCC1=O
→ 104.1, 101.4, 83.6, -84.3
CCSCC1COC(c2cccn2Cc2ccc(F)cc2)=N1 (stereo not given)
→ 100.5&99.2, 77.3, 85.3, -25.5
CC(C)N(C(=O)Nc1ccccc1F)c1ccccc1
→ 98.4, 105.3, 103.8, -25.3
Cc1ccc2nc(SC(C)C(=O)Nc3ccc(C#N)cc3)[nH]c2c1 (stereo not given)
→ ., 96.4, 78.6, -39.2
Cc1onc(-c2c(Cl)cccc2Cl)c1C(=O)N=S(C)(C)=O
→ 107.4, 93.5, 84.8, -15.8
COc1cccc(CNC(=O)c2cc(-c3cccc(OC)c3)n[nH]2)c1
→ 100.5, 95.5, 85.5, .
Cc1ccc(C2=NN(C(=O)CCC(=O)O)C(c3cc4cccc(C)c4nc3Cl)C2)cc1 (stereo not given)
→ 106.9, ., ., -6.9
Cc1ccc(C2CC(=O)NC(SCC(=O)Nc3ccc(Br)cc3)=C2C#N)s1 (stereo not given)
→ 100.0, ., ., -13.3
O=C(O)c1cccc(NC(=O)c2cc3cc(Br)cc(Br)c3oc2=O)c1
→ 105.5, 93.0, 94.9, -83.9
CC(=O)N1N=C(c2cccc(NS(C)(=O)=O)c2)CC1c1cn(-c2ccccc2)nc1-c1ccccc1 (stereo not given)
→ 101.4, ., ., -4.4
Cc1noc(C)c1CCc1nc(-c2ccc(Cl)cc2)no1
→ 104.7, ., ., -2.4
Cc1ccc(NC(=O)CSc2nc(=O)cc(N)n2CCc2ccccc2)cc1
→ 107.5, 98.6, 92.1, -9.1
Cc1nn(-c2ccccc2)c2sc(-c3noc(-c4cnccn4)n3)cc12
→ 103.1, ., ., -15.1
COc1ccc2c(c1)C=C(C(=O)N1CCOCC1)C=CO2
→ 106.0, ., ., -81.0
COc1ccc(C2OC(=O)CC2C(=O)NCCc2ccccc2)cc1OC (stereo not given)
→ 101.6, 100.2, 80.6, -18.6
CCc1ccccc1NC(=S)Nc1ccc(Oc2ccc(Cl)cc2)cc1
→ 103.1, 49.7, 38.6, -11.6
c1ccc2[nH]c(C3CCCCC3)nc2c1
→ ., 65.1, 93.2, 6.7
CC(=O)N1N=C(COc2ccc(Cl)cc2Cl)OC1c1ccco1 (stereo not given)
→ 97.1, 102.9, 88.5, -32.1
Cc1cc(Br)ccc1NC(=O)CN(C)C(=O)C1=COCCO1
→ ., 94.8, 85.1, 3.9
CC(C)(CC(=O)Nc1cccnc1)Sc1ccc(Cl)cc1
→ 94.4, 101.5, 93.5, -5.9
Cc1ccc(C(=O)CC(C(=O)O)N2CCN(C)CC2)cc1 (stereo not given)
→ ., 100.1, 72.0, -13.2
O=C1COc2ccc(S(=O)(=O)N3CCN(c4cccc(Cl)c4)CC3)cc2N1
→ 110.0, ., ., -7.5
CC(=O)c1cccc(NC(=O)CSc2nc3c(=O)n(C)c(=O)n(C)c3n2C)c1
→ 101.1, 131.6, 86.7, .
O=C(Nc1ccc(F)cc1F)c1ccc2nonc2c1
→ 97.3, 112.2, 85.4, -33.5
COc1cccc(CNc2ccc3c(c2)ncn3C(C)(C)C)c1OC
→ 105.8, 96.4, 82.2, .
CCOC(=O)c1sc2nc(NC(=O)C(C)(C)C)sc2c1C
→ 105.6, 100.0, 89.3, -5.4
C=CCn1c2ccccc2c2nnc(SCCCC(=O)c3ccc(F)cc3)nc21
→ 103.6, 96.2, 76.1, .
Cc1noc(C)c1COC(=O)C1=NNC(=O)CC1
→ ., 99.6, 94.2, 3.5
CCOc1ccc(Oc2nc(NCC(C)C)nc(OC)n2)nn1
→ 98.9, 95.4, 94.7, .
CCCNC(=O)C1CCN(C(=O)N2CCOc3ccccc32)CC1
→ 104.2, 96.4, 81.8, -20.9
CCN1CCN(Cc2c(O)ccc3oc(C)c(C(=O)Nc4ccc(OC)cc4)c23)CC1
→ 99.4, 106.2, 94.0, -2.0
Cc1nn(-c2ccc(N3CCCC3)nn2)c(C)c1CCC(=O)NCc1ccc(OC(C)C)cc1
→ 101.9, 100.9, 87.7, .
Cc1ccc(-c2nc3cc(Cl)ccc3o2)cc1NC(=O)c1ccco1
→ 100.8, 69.4, 92.5, -8.5
Cc1ccccc1OCCCC(=O)Nc1nc2ccccc2s1
→ 105.8, 103.6, 96.1, -2.8
CCOCCC(=O)Nc1ccc(Cl)cc1
→ 101.7, 104.8, 94.6, -12.4
Cc1ccc(N)cc1NS(C)(=O)=O
→ 105.2, 96.8, 92.4, -35.6
CNC(=O)C1=C(C)Nc2nc3ccccc3n2C1c1ccc(F)cc1 (stereo not given)
→ 107.9, 108.9, 94.2, 7.3
CC(=O)Nc1c(C#N)c(C(C)(C)C)cn1C
→ 102.4, 104.6, 99.7, 4.0
CSC(=S)N(C)c1nc2ccccc2s1
→ ., 93.8, 95.0, -6.2
Cc1nc2cc(-c3ccccc3)nn2c(C)c1CCC(=O)NC(C)C
→ 106.5, 100.9, 93.5, 3.0
COCCNC(=O)Cn1nc(C(F)(F)F)cc1C
→ 100.3, 95.2, 72.9, -16.4
CC(=O)n1cc(-c2nsc(Nc3ccccc3)n2)c(C)n1
→ 106.7, 110.4, 112.0, 0.9
COc1ccccc1-c1cc(C(F)(F)F)nc(S(=O)(=O)CCCC(=O)Nc2cc(OC)c(OC)c(OC)c2)n1
→ 109.7, 68.2, 69.5, 16.5

# Continuation.
# Values run as follows: GIV Gai3 FP, Sa growth inh, Sa growth inh second temp, HCMV NEC inh
Clc1ccccc1OCCn1cc(/C=N/n2cnnc2)c2ccccc21
→ 99.9, 81.7, 67.7, -7.7
CCc1cccc(NC(=O)C2CCCN2S(=O)(=O)c2ccc3nc(-c4ccccc4)[nH]c3c2)c1 (stereo not given)
→ 108.4, 93.8, 95.7, .
Cc1ccc(NC(=O)Cc2ccc(NC(=O)N3CCCCc4ccccc43)cc2)cc1Cl
→ 97.5, 83.7, 91.9, .
COc1ccc(CN2CC(C(=O)O)CC2=O)cc1 (stereo not given)
→ 98.8, 92.5, 90.8, .
CCc1cc(=O)[nH]c(SCc2nc(-c3ccccc3C)no2)n1
→ 100.9, 100.1, 94.7, .
O=C(O)c1ccccc1C(=O)Nc1ccc(-c2ccccc2)cc1
→ 108.4, 114.1, 98.5, -3.9
O=C(OCC(=O)N1CCCCCC1)c1n[nH]c(=O)c2ccccc12
→ ., 97.8, 95.3, -44.3
CC(C)(C)Nc1ncnc2c1cnn2Cc1ccccc1
→ ., 97.3, 88.6, 4.6
CSc1ccccc1NC(=O)CC(=O)Nc1ccccc1SC
→ 100.7, 83.5, 102.0, -0.9
O=C(Nc1ccccc1)Nc1ccccc1Br
→ 105.5, 108.2, 105.4, 14.3
CCc1ccc(NC(=NCc2ccncc2)NC(=O)c2ccc3c(c2)OCO3)cc1
→ 101.6, ., ., -26.1
CC(C)c1nc(C#N)c(NCCCn2ccnc2)o1
→ 97.7, 96.3, 87.4, -3.3
CCSc1nc2cc(C(=O)OC)ccc2c(=O)n1CC
→ 102.0, 91.3, 80.5, -1.5
O=C(O)c1cc2cc(Cl)cc(Br)c2oc1=O
→ 104.2, 92.2, 79.9, -124.9
COc1cccc(C(=O)Nc2ccc(-n3nncc3-c3ccccc3)cc2)c1OC
→ 105.5, 108.7, 86.1, .
Cc1ccc2nc(NC(=O)CSc3nccn3Cc3ccccc3)sc2c1
→ 97.3, 95.9, 51.2, .
O=C(O)C12CC3CC(C1)CC(c1ccccc1)(C3)C2
→ ., 154.9, 110.1, -16.3
CCOc1ccc(-c2noc(N3CCC(C(=O)N4CCOCC4)CC3)n2)cc1OC
→ 100.6, ., ., -3.1
CN1CCN(C=Nc2nc3ccccc3nc2N2CCCC2)CC1
→ ., 91.9, 81.9, -26.5
Cc1cc(Br)ccc1NC(=O)Cn1cc(S(=O)(=O)N2CCN(c3ccccc3F)CC2)c2ccccc2c1=O
→ 105.7, 106.0, 89.9, -11.0
N#CC1C(=O)NC(c2ccccc2)C=C1c1ccccc1 (stereo not given)
→ ., 99.0, 102.0, 12.7
CCN1C(=O)CC(NC23CC4CC(CC(C4)C2)C3)C1=O (stereo not given)
→ 111.5, 121.4, 94.3, -3.6
COc1ccccc1CNC(=O)C(=O)NCC(c1cccnc1)N1CCN(c2ccccc2)CC1 (stereo not given)
→ 105.2, 96.8, 67.8, -16.1
FC(F)(F)c1ccc(NCc2ccc3c(c2)OCO3)nc1
→ ., 66.9, 91.2, -28.3
CC(C)c1ccc(NS(=O)(=O)c2ccc3nc(-c4ccccc4)[nH]c3c2)cc1
→ 106.9, 108.9, 98.9, -15.7
Cc1onc(-c2ccccc2)c1C(=O)NCC(O)c1ccccc1 (stereo not given)
→ 100.1, 108.9, 83.0, -12.0
C=CCn1c(SCC(=O)Nc2ccc3c(c2)OCO3)nc2sc3c(c2c1=O)CCC3
→ 103.6, ., ., -5.7
CN1C(=O)/C(=C\C(=O)c2cccs2)c2ccccc21
→ 98.3, 2.9*, 0.2*, 7.4
CCC(NC(=O)Nc1ccc(OC)c(OC)c1)c1c(-n2cccc2)sc2c1CCN(C)C2 (stereo not given)
→ 105.7, 118.1, 97.5, .
NC(=O)c1ccc(OCC(=O)NC(=O)NCC2COc3ccccc3O2)cc1 (stereo not given)
→ ., 91.7, 91.0, -6.1
O=C(CN1C(=O)c2ccccc2C1=O)Oc1ccc2ccccc2c1
→ ., 82.3, 85.8, -10.3
CCc1ccc(C(O)(c2ccccc2)C(CN2CCOCC2)c2ccccc2)cc1 (stereo not given)
→ 103.8, 97.7, 85.1, .
O=C(CC1CCCCC1)N1CCC(N2CCN(Cc3ccccc3)C(=O)C2=O)CC1
→ 104.2, ., ., 6.0
Cc1cccn2c(=O)c(/C=C3\SC(=S)NC3=O)c(NCc3ccco3)nc12
→ 281.4, 102.3, 73.9, -40.9
CC12CC3(C)CC(C)(C1)CC(C(=O)NN)(C2)C3
→ ., 122.2, 90.4, -4.1
CC(=O)NCCNC(=O)CCCc1nnc2n(CCC(C)C)c(=O)c3sccc3n12
→ 103.0, 114.4, 97.5, .
Cc1cccc(NC(=O)C(=O)NCC(c2cccnc2)N2CCN(Cc3ccccc3)CC2)c1 (stereo not given)
→ 104.8, 102.5, 96.1, -6.7
Cc1ccc(C)c(-c2nc3ccc(N)cc3[nH]2)c1
→ 103.4, 89.2, 79.0, -10.9
O=C(Cc1cn2ccsc2n1)NN=C1c2ccccc2-c2ccccc21
→ ., 87.4, 87.1, -32.1
CCCCNC(=O)CC1(CC2=NS(=O)(=O)c3ccccc3N2)CCCC1
→ 104.7, ., ., -12.9

# From PubChem
